Arbovirus anti: arbovirus infection inhibition | arbovirus infection cell-based antiviral screen | AID 1251 | 200,000 tested, 0.37% active | inhibition, % at 10 µM;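 active means inhibition from about 30%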;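 further: bluetongue infection of BSR cells; cell survival read as ATP light after 72 h; 0% = infected wells without compound and 100% = uninfected wells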
Mtb betalactam: beta-lactam sensitization of Mtb H37Rv. 330,000 tested, 0.27% active. inhibition, % at 25 µM. M. tuberculosis H37Rv growth with meropenem, percent inhibition; hits of this screen are not shown here. AID 434955;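 active means about 74% or more and at least 40 points above the plate without the antibiotic, then above 30% in a dose series; inconclusive means first-round hits that could not be retested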;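 further: growth measured after seven days incubation then overnight dye step; 0% = bacteria only wells and 100% = bacteria with antibiotic; twin plates without the antibiotic show which effects depend on it; some results filed as inactive read as strong as hits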
RecA splice inh: inhibitors of M. tuberculosis RecA intein splicing | inhibition, %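 (about 9 µM by stock and volumes)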 | AID 2221 | 290,000 tested, 0.75% active | P9WHJ3 | cell-free RecA intein splicing, fluorescence; in the data active means inhibition above about 30%; inconclusive means no clear call, values can overlap the other calls;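 further: 0% = vehicle wells and 100% = reference inhibitor control wells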
Target sequence (P9WHJ3 whole entry, looked up, canonical isoform): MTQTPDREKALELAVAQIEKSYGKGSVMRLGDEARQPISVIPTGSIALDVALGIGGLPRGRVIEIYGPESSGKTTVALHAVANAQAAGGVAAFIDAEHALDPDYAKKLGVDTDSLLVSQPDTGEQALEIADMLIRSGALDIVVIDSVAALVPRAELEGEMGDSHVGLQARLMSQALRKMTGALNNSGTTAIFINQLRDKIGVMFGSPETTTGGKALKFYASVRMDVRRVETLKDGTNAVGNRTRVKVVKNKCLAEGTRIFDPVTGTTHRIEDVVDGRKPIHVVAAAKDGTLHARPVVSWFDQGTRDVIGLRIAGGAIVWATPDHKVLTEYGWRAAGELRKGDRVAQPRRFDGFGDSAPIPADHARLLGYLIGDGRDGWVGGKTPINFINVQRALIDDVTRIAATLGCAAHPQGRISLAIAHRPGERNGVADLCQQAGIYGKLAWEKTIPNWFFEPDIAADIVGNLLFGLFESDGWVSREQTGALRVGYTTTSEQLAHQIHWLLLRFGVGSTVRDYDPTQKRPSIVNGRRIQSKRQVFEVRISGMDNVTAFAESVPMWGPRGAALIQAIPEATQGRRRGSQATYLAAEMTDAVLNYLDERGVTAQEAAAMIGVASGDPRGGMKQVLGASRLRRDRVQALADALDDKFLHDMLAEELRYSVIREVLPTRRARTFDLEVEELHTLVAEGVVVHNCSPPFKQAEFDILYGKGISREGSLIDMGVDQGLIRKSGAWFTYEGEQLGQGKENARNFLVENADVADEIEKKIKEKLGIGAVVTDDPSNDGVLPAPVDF
YopH inh: blocks Yersinia enterocolitica YopH tyrosine phosphatase; inhibition, %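 (about 10 µM by stock and volumes)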; fluorescence Ex485/Em525; 140,000 tested, 0.16% active;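 active means inhibition of 50% or more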;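 further: controls were vehicle for no effect and minimum signal wells for full effect; inactives centre near -20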
Mtb H37Rv: M. tuberculosis H37Rv growth inhibitors, H37Rv strain (AID 1626) | M. tuberculosis H37Rv growth inhibition; higher % means a stronger effect | 220,000 tested, 0.95% active | inhibition, % at 10 µM; hits with a dose series show IC50 in µM;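 active means confirmed in a dose series; inconclusive means inhibition above 80% but not taken into the dose series; inactive means below 80% or under 30% at every dose of the series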;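 further: bacteria incubated seven days before Alamar blue readout; 0% = bacteria only wells and 100% = bacteria with antibiotic wells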
* hit, by the source's call; u = inconclusive; x = not tested or not shown; & = joins results of further samples. Some of the compounds tested (hit frequency here may not be typical).

Structure,Arbovirus anti,Mtb betalactam,RecA splice inh,YopH inh,Mtb H37Rv
O=C(Oc1ccc(OC(=O)c2ccco2)c(S(=O)(=O)c2ccc(Cl)cc2)c1)c1ccco1,-3,-4,-2.5,-22,1%
O=C(COC(=O)c1nc(Cl)ccc1Cl)NCc1ccccc1,3,-7,0.7,x,5%
Cc1ccc(S(=O)(=O)NCC(=O)NCC(=O)N2CCN(c3ncccn3)CC2)cc1C,x,20,-0.4,x,-1%
Cc1ccc(NC(=S)Nc2cccc(-c3n[nH]c(=S)o3)c2)cc1,x,-5,1.1,x,10%
NC(=O)CC(NC(=O)Cc1cccc2ccccc12)c1ccc(NCCCN2CCCC2=O)c([N+](=O)[O-])c1 (stereo not given),x,2,2.8,x,x
COc1ccc(C(=O)OCN2C(=O)c3ccccc3C2=O)cc1,4,8,-0.4,x,2%
O=C(Cn1ncc(N2CCCC2)c(Cl)c1=O)c1ccc(Cl)cc1,-3,-8,1.1,x,3%
Fc1ccccc1C1c2[nH]c3ccccc3c2CCN1CCCn1cccn1 (stereo not given),6,-10,-6.3,x,-5%
CCOC(=O)N1CCN(CC(c2ccccc2)c2ccccc2)CC1,x,0,-0.9,x,x
Clc1ccccc1-c1nnc2sc(CCc3ccccc3)nn12,0,67,10,12,6%
Cc1ccc(S(=O)(=O)N2CCC(C(=O)N/N=C/c3ccncc3)CC2)cc1,-11,2,-0.4,x,-4%
COc1ccc(-c2cc(-c3ccccc3)nc3ncnn23)cc1,0,-1,-1.5,x,7%
COc1cccc(C(=O)Nc2nnc(Cc3ccc(OC)c(OC)c3)s2)c1,x,46,-1.3,x,4%
COc1ccc(C(C(=O)NCCC(C)C)N(CCO)C(=O)c2snc(C(N)=O)c2N)cc1 (stereo not given),x,5,1.4,x,x
CN(C)S(=O)(=O)c1cccc(-c2cn3cc(Cl)ccc3n2)c1,-10,14,0.0,-20,7%
COC(=O)c1ccc(C(=O)OC)c(NC(=O)CN(C)Cc2ccc(Cl)c(Cl)c2)c1,20,0,0.9,-4,-2%
COc1ccccc1NC(=S)NNC(=O)c1c(Cl)c(C)nn1C,5,1,1.8,-12,-11%
CCN(CC)CCNC(=O)CNC(=O)c1nn(-c2ccc(OC)cc2)c(=O)c2ccccc12,x,3,-1.9,x,x
COc1ccc(C(=O)O)cc1S(=O)(=O)NCCN(C)C,x,0,0.7,x,-9%
O=C1CCN(C(=S)NCc2ccccc2)CC1,-1,3,-2.9,x,4%
OC1(c2cccc(C(F)(F)F)c2)CCNCC1,-4,2,5.2,2,-12%
Cc1ccc(C(=O)NC(=S)NCCN2CCOCC2)cc1,11,3,-1.1,19,-4%
O=C(O)/C=C/C(=O)N1CCN(S(=O)(=O)c2cc(C(F)(F)F)ccc2Cl)CC1,7,-10,0.4,x,2%
CC(C)C(=O)Nc1cccc(NC(=S)NC(=O)c2ccc3c(c2)OCO3)c1,x,-4,-3.9,x,x
O=C(CCCc1nc(-c2ccccc2Cl)no1)N1CCOCC1,10,-4,-1.9,x,-2%
Cc1onc(-c2ccccc2)c1-c1nc2cc(Cl)ccc2c(=O)o1,x,-5,36*,x,-1%
Cc1ccc(NC(=O)Cn2c(O)c(N=NC(N)=S)c3ccccc32)cc1,x,-1,2.8,x,x
O=C(c1ccc2c(c1)[nH]c(=S)n1c3ccccc3nc21)N1CCN(c2cccc(Cl)c2)CC1,-35,88,2.6,x,4.4µM*
CCC1CCCCN1CCCNC(=O)c1cc2c(=O)[nH]c3ccccc3c2n1C (stereo not given),-3,-4,1.5,x,4%
O=C(Nc1ccc2c(c1)CCC2)c1cccs1,-9,38,0.3,x,54%
CC1CCCC(C(=O)O)N1C(=O)CCS (stereo not given),5,-2,-1.7,-20,-11%
Cc1ccccc1-n1c(O)c(C=NC2CCS(=O)(=O)C2)c2ccccc2c1=O (stereo not given),x,4,-2.9,x,1%
CC1=C(C(=O)NC2CCCc3c2cnn3-c2cc(F)cc(F)c2)OCCO1 (stereo not given),x,-2,0.8,x,x
CC1(C)C(=O)C2(CCCCC2)C(=O)OC1c1cccs1 (stereo not given),4,1,-2.1,-52,3%
CCCCNc1c(C(=O)OCC)c(C)nc2c1cnn2CC,x,5,3.0,x,12%
CC(NC(=O)CN1C(=O)NC(C)(c2cccc3ccccc23)C1=O)c1ccccc1 (stereo not given),x,-1,2.0,x,x
COc1ccc2[nH]cc(C(=O)CN3CCCC(C)(C)C3)c2c1,x,3,0.0,x,x
CC(C)=CCCC1=CCC2C(=O)NNC(=O)C2C1 (stereo not given),3,-1,0.9,-30,2%
O=C(Nc1ccc2c(c1)OCO2)c1cc(-c2ccc(O)cc2)on1,x,1,15,x,x
CN(CCOC(=O)C1c2ccccc2Oc2ccccc21)C(C)(C)C,6,-5,-0.9,-68,-10%
COc1ccc(NC(=O)CN2CCCC2)cc1,x,0,2.3,x,x
CC1(C)CC(=O)C2=C(C1)N(c1ccc(F)cc1)C(=O)CC2c1ccsc1 (stereo not given),1,2,0.7,-29,0%
CC(Sc1nc(N2CCCCC2)c2c(c1C#N)CCCC2)C(=O)O (stereo not given),10,19,4.4,-6,-3%
COc1ccccc1N(CC(=O)NC(C)C)S(=O)(=O)c1cccs1,2,0,0.6,-13,2%
O=C(COc1ccc(S(=O)(=O)Nc2ccccc2)cc1)NCc1cccnc1,9,u,1.2,-14,8%
Cc1ccc(CCN2CC(C(=O)NCCN3CCOCC3)CC2=O)cc1 (stereo not given),1,-2,-0.1,-40,-3%
CC(=O)NS(=O)(=O)c1ccc(NC(=S)NC(=O)C(C)C)cc1,4,-2,-4.3,-5,-8%
COc1ccccc1C(=O)N/C(=C\c1ccc(Br)cc1)C(=O)NCCC(=O)O,4,-8,x,x,-5%
Cc1cc(NC(=O)c2ccc3nc(C)sc3c2)no1,-2,7,6.4,-47,-1%
COc1ccc(CN(CCN(C)C)Cc2ccccc2)c(OC)c1,-8,-3,x,-16,0%

Molecules listed so far with a COOH group, in the order listed:
Structure,Arbovirus anti,Mtb betalactam,RecA splice inh,YopH inh,Mtb H37Rv
COc1ccc(C(=O)O)cc1S(=O)(=O)NCCN(C)C,x,0,0.7,x,-9%
O=C(O)/C=C/C(=O)N1CCN(S(=O)(=O)c2cc(C(F)(F)F)ccc2Cl)CC1,7,-10,0.4,x,2%
CC1CCCC(C(=O)O)N1C(=O)CCS (stereo not given),5,-2,-1.7,-20,-11%
CC(Sc1nc(N2CCCCC2)c2c(c1C#N)CCCC2)C(=O)O (stereo not given),10,19,4.4,-6,-3%
COc1ccccc1C(=O)N/C(=C\c1ccc(Br)cc1)C(=O)NCCC(=O)O,4,-8,x,x,-5%

(list continues)
Structure,Arbovirus anti,Mtb betalactam,RecA splice inh,YopH inh,Mtb H37Rv
Cc1ccccc1C(=O)NCc1ccncc1,-1,0,-0.3,-10,-4%
Cc1sc2ncn(CC(=O)N3CCN(c4ccc(F)cc4)CC3)c(=O)c2c1S(=O)(=O)N1CCOCC1,x,3,2.1,x,x
CCOC(=O)c1c(N2C(=O)CC(Sc3ccccc3C(=O)O)C2=O)sc2c1CCCC2 (stereo not given),4,-5,7.9,x,-7%
CC(=O)Nc1ccc(S(=O)(=O)N2CCN(S(=O)(=O)N3CCOCC3)CC2)cc1,x,2,-3.8,x,x
O=C(O)c1ccc(NC(=O)c2cccc(NC(=O)c3cccs3)c2)cc1,x,4,-2.8,x,x
COC(=O)c1cccc(NC(=O)CSCc2ccccc2)c1,x,-4,1.7,x,x
Cc1cc(NC(=O)C2CCCCC2)ncc1NC(=O)c1ccccn1,-7,11,4.4,x,3%
CC1CCN(C(=O)COC(=O)c2ccc(F)c(S(=O)(=O)N3CCOCC3)c2)CC1,x,-7,-0.9,x,x
CC1CC(NC(=O)/C(C#N)=C/c2ccc[nH]2)CC(C)(C)C1 (stereo not given),x,-3,-2.5,x,0%
COCCNC(=O)c1onc(CSc2nc3ccccc3[nH]2)c1C(=O)NCCOC,x,-4,18,x,x
CCc1cc2c(-c3ccccc3)cc(=O)oc2cc1OCC(C)=O,x,6,1.7,x,x
CN(CC(=O)N1CCCCCC1)S(=O)(=O)c1ccc(Br)s1,1,-9,8.2,-10,4%
CCn1cc(CN2CCC(C(=O)Nc3cccc(-c4cccc(Cl)c4)c3)CC2)cn1,x,u,3.2,x,x
COc1cccc(NC(=O)N2CCC(NC(=O)C(Cc3ccccc3F)NC(C)=O)CC2)c1 (stereo not given),x,-3,0.6,x,x
COc1cccc(/C=N/Nc2ccc(S(=O)(=O)O)cc2)c1O,7,7,-4.6,-23,-3%
CSCC[C@H](NC(=O)Nc1ccc(C)cc1C)C(=O)O,-8,-6,-1.1,-18,-25%
CSc1nc(-c2ccco2)cc(-c2ccccc2)c1C#N,7,-4,-3.2,-27,13%
C=C(C)C1CC=C(C)/C(=N/NC(=O)c2ccccc2[N+](=O)[O-])C1 (stereo not given),-13,6,-2.0,x,-1%
CCC(C)NC(=O)C1CCCN1S(=O)(=O)c1ccc(Cl)cc1 (stereo not given),4,-3,-0.2,-13,1%
CC(C)(O)CCc1c(-c2ccc(O)cc2O)oc2c3c(cc(O)c2c1=O)OC(C)(C)C=C3,x,-7,12,x,1%
CCS(=O)c1ccccc1C(=O)O (stereo not given),5,0,0.6,-33,-1%
CCN1CCN(CC(=O)c2c(C)n(Cc3ccccc3)c3ccc(OC)cc23)CC1,-19,8,3.6,-1,-3%
COc1ccc(C(CNC(=O)COc2ccccc2C)N2CCCC2)cc1 (stereo not given),x,-16,-2.0,x,x
CCCNC(=O)CC1Sc2ccccc2NC1=O (stereo not given),-1,-4,0.3,-30,-6%
OCc1cn(-c2ccccc2)nc1-c1ccc(Br)cc1,x,77,1.5,x,x

Among those listed so far, 2 have a nitro group on carbon:
Structure,Arbovirus anti,Mtb betalactam,RecA splice inh,YopH inh,Mtb H37Rv
NC(=O)CC(NC(=O)Cc1cccc2ccccc12)c1ccc(NCCCN2CCCC2=O)c([N+](=O)[O-])c1 (stereo not given),x,2,2.8,x,x
C=C(C)C1CC=C(C)/C(=N/NC(=O)c2ccccc2[N+](=O)[O-])C1 (stereo not given),-13,6,-2.0,x,-1%

Next part
Structure,Arbovirus anti,Mtb betalactam,RecA splice inh,YopH inh,Mtb H37Rv
Cc1ccccc1C(=O)Nc1ccnn1C1CCN(Cc2cnn(C)c2)CC1,x,u,3.0,x,x
CCCCCCNc1nc(Cl)nc(NC(C)(C)CO)n1,x,3,-1.3,x,19%
Cn1nc(C(=O)Nc2sc3c(c2C#N)CCCC3)ccc1=O,-1,8,2.0,x,-3%
CCOC(=O)c1cccc(NC(=O)CSc2nnc(-c3cccnc3)n2C)c1,2,-5,0.7,1,1%
Cc1onc(-c2c(F)cccc2Cl)c1C(=O)OCn1nnc2ccccc2c1=O,4,-5,x,-4,3%
CC1=Nc2cccc([N+](=O)[O-])c2NC(=O)C1,3,x,x,x,0%
CN(C)/C=C/C(=O)c1cccc([N+](=O)[O-])c1,-4,5,3.6,x,7%
CCCCn1c(=O)[nH]c(=O)c2c1nc(-c1ccc(-c3ccccc3)cc1)n2C,x,-1,-2.0,x,x
COc1ccc(S(=O)(=O)NCc2ccco2)cc1NC(=O)c1ccccc1,x,3,1.9,x,x
COC(=O)C1C(OC(=O)c2ccccc2)CC2CCC1N2C (stereo not given),7,-7&-3,-0.1,x,-15%
CCCCn1c(SCC(=O)NC2CCCC2)nc2ccccc2c1=O,x,-8,-1.0,x,x
COCCNC(=O)C(c1ccccc1)N(Cc1cccs1)C(=O)Cn1nnc2ccccc21 (stereo not given),6,-3,2.0,-34,1%
O=C(Nc1ccccc1N1CCCC1)c1cc(Cl)ccc1Cl,-5,95,-0.2,x,17%
CCC(=O)N1CCc2cc(S(=O)(=O)CCC(=O)N3CCN(c4ccc(Cl)cc4)CC3)ccc21,x,-2,1.9,x,x
Cc1cc(C(=O)CSc2nc3ccccc3o2)c(C)n1CC1CCCO1 (stereo not given),24,-5,1.0,-12,7%
CC1CCC(NC(=O)COC(=O)c2n[nH]c(=O)c3ccccc23)CC1 (stereo not given),x,-14,-0.1,x,x
Cc1cc(C)n(-c2nc3ccccc3c(=O)n2OCC(=O)N(C)C)n1,-1,x,-2.7,-38,3%
Cc1nnc(C)c2c(C)n(-c3ccc(Br)cc3)c(C)c12,13,x,0.1,-19,-4%
CCN(Cc1ccccc1)C(=O)C1CCN(C/C(C)=C/c2ccccc2)CC1,-5,-1,-3.0,-20,0%
